FGF22 binding: binders of recombinant human FGF22 by thermal shift; AID 651658; SYPRO orange fluorescence; percent of sucrose octasulfate shift, DMSO zero; calls only at 9.99 µM; 340,000 tested, 1.5% active; Q9HCT0;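 active means melting point raised past a set limit in the mean and every replicate; three in four hits are not shown here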
Target sequence (Q9HCT0 whole entry, looked up): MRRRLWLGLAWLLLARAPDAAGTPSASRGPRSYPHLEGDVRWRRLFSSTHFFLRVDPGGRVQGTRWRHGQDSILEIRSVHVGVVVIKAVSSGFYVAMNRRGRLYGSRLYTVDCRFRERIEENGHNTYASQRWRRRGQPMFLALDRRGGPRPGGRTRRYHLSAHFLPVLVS
Calls only; i = inactive.

SMILES | FGF22 binding
C[C@@H]1CN([C@@H](C)CO)C(=O)Cc2cc(NC(=O)CCCCCC(=O)Nc3ccccc3N)ccc2O[C@@H]1CN(C)S(C)(=O)=O | i
COc1ccccc1CNC(=O)C[C@H]1CC[C@H]2[C@@H](COC[C@@H](O)CN2Cc2ccccc2)O1 | i
C[C@H]1CN([C@@H](C)CO)C(=O)c2cc(NS(=O)(=O)c3ccccc3)ccc2O[C@H]1CN(C)CC1CC1 | i
C[C@@H]1CCCCO[C@@H](CN(C)C)[C@H](C)CN([C@H](C)CO)C(=O)c2cc(NC(=O)Nc3ccc(F)cc3)ccc2O1 | i
CCCC(=O)Nc1ccc2c(c1)C(=O)N(C)C[C@H](OC)[C@@H](C)CN(C(=O)CN(C)C)[C@H](C)CO2 | i
CC(=O)N(C)C[C@H]1Oc2ncc(-c3ccccc3F)cc2C(=O)N([C@H](C)CO)C[C@@H]1C | i
O=C(N[C@@H]1CC[C@@H](CCNC(=O)C2CCC2)O[C@@H]1CO)c1ccncc1 | i
O=C(c1cccc(F)c1)N1CCCCN2[C@H](C1)[C@H](c1ccc(/C=C/c3ccccc3)cc1)[C@@H]2CO | i
O=C(C[C@@H]1C[C@@H]2c3cc(NC(=O)Nc4ccccc4F)ccc3O[C@@H]2[C@H](CO)O1)NC1CCCCC1 | i
COc1cccc(C(=O)N2C[C@@H]3[C@H](c4ccccc42)[C@H](CO)N3C(C)=O)c1 | i
CN(C)CC#Cc1cccc(-c2nc(C(=O)NCc3ccc4c(c3)OCO4)cc3c2[C@@H](CCO)N(S(=O)C(C)(C)C)C3)c1 (stereo partly drawn) | i
O=C(C[C@@H]1CC[C@@H]2[C@H](COC[C@@H](O)CN2Cc2cccc(F)c2)O1)NCC1CCCCC1 | i
O=C(C[C@H]1CC[C@@H](NC(=O)C2CCC2)[C@@H](CO)O1)NCc1ccncc1 | i
C[C@H]1CN([C@@H](C)CO)C(=O)c2cccc(NC(=O)CCCCCC(=O)Nc3ccccc3N)c2O[C@H]1CN(C)C | i
C[C@@H]1CCCCO[C@@H](CN(C)C(=O)NC2CCCCC2)[C@@H](C)CN([C@@H](C)CO)C(=O)c2cc(NC(=O)Nc3cccc4ccccc34)ccc2O1 | i
O=C(c1ccc2c(c1)OCO2)N1CC(=O)N2[C@H](CO)[C@@H](c3ccc(C#CCC4CCCC4)cc3)[C@H]2C1 | i
COC(=O)[C@H]1[C@H](CO)[C@H]2Cn3c(ccc(-c4ccccc4)c3=O)[C@H]2N1C(=O)CC1CC1 | i
OC[C@@H]1[C@H](c2ccc(C3=CCCCC3)cc2)[C@@H]2CN(CCC(F)(F)F)CCCCN12 | i
CCC(=O)N1C[C@@H](C)[C@H](OC)CN(C)C(=O)c2cc(NC(=O)C3CC3)ccc2OC[C@H]1C | i
C[C@@H]1CN([C@@H](C)CO)C(=O)c2cc(-c3cccnc3)cnc2O[C@@H]1CN(C)C(=O)C1CC1 | i
COCC(=O)N1CC(=O)N2[C@H](C1)[C@@H](c1ccc(C#CCc3ccccc3)cc1)[C@@H]2CO | i
Cc1ccc(-c2ccc3c(c2)O[C@@H](CN(C)Cc2cccc(C(=O)O)c2)[C@H](C)CN([C@@H](C)CO)S3(=O)=O)cc1 | i
C[C@H]1CN([C@@H](C)CO)C(=O)c2cc(NC(=O)Nc3ccc(C(F)(F)F)cc3)ccc2O[C@@H]1CN(C)C | i
Cc1noc(C)c1NC(=O)N(C)C[C@H]1OCCCC[C@@H](C)Oc2ccc(NC(=O)C3CCCCC3)cc2C(=O)N([C@H](C)CO)C[C@@H]1C | i

Brought forward from above: six entries; new compounds follow.
SMILES | FGF22 binding
CCC(=O)N1C[C@@H](C)[C@H](OC)CN(C)C(=O)c2cc(NC(=O)C3CC3)ccc2OC[C@H]1C | i
C[C@@H]1CN([C@@H](C)CO)C(=O)c2cc(-c3cccnc3)cnc2O[C@@H]1CN(C)C(=O)C1CC1 | i
COCC(=O)N1CC(=O)N2[C@H](C1)[C@@H](c1ccc(C#CCc3ccccc3)cc1)[C@@H]2CO | i
Cc1ccc(-c2ccc3c(c2)O[C@@H](CN(C)Cc2cccc(C(=O)O)c2)[C@H](C)CN([C@@H](C)CO)S3(=O)=O)cc1 | i
C[C@H]1CN([C@@H](C)CO)C(=O)c2cc(NC(=O)Nc3ccc(C(F)(F)F)cc3)ccc2O[C@@H]1CN(C)C | i
Cc1noc(C)c1NC(=O)N(C)C[C@H]1OCCCC[C@@H](C)Oc2ccc(NC(=O)C3CCCCC3)cc2C(=O)N([C@H](C)CO)C[C@@H]1C | i
CNC(=O)C[C@H]1CC[C@@H]2[C@H](COc3ccc(NC(=O)c4ccccc4F)cc3C(=O)N2C)O1 | i
Cc1ccc(S(=O)(=O)Nc2cccc3c2O[C@@H](CN(C)Cc2ccc(Oc4ccccc4)cc2)[C@@H](C)CN([C@H](C)CO)C3=O)cc1 | i
C[C@@H]1CN([C@@H](C)CO)C(=O)Cc2cc(NC(=O)Nc3ccccc3)ccc2O[C@H]1CN(C)C(=O)Nc1ccc2c(c1)OCO2 | i
CCCC#Cc1ccc([C@@H]2[C@H]3CN(Cc4ccncc4)CCCCN3[C@H]2CO)cc1 | i
C[C@@H]1CN([C@H](C)CO)C(=O)c2cc(-c3ccncc3)cnc2O[C@H]1CN(C)C(=O)c1ccccc1F | i
COc1cccc(S(=O)(=O)N[C@H]2C=C[C@H](CC(=O)NC3CCC3)O[C@H]2CO)c1 | i
C[C@@H]1CN([C@@H](C)CO)C(=O)c2cc(NS(=O)(=O)c3cccs3)ccc2O[C@@H](C)CCCCO[C@@H]1CN(C)C(=O)Nc1ccc(C(F)(F)F)cc1 | i
C[C@H](CO)N1C[C@H](C)[C@H](CN(C)C(=O)Nc2ccc(C(F)(F)F)cc2)Oc2c(NS(=O)(=O)c3cccs3)cccc2C1=O | i
CCCC(=O)Nc1ccc2c(c1)C(=O)N(C)C[C@H](OC)[C@@H](C)CN(Cc1ccc(-c3ccccn3)cc1)[C@H](C)CO2 | i
CCS(=O)(=O)N1[C@H](CO)[C@@H](c2ccc(C#CC(C)C)cc2)[C@@H]1C#N | i
COc1cccc(CN2CC3(CN(CC4CCOCC4)C3)c3c([nH]c4cc(OC)ccc34)[C@H]2CO)c1 | i
COc1ccccc1NC(=O)N[C@H]1CC[C@H](CC(=O)NCc2ccc(Cl)c(Cl)c2)O[C@@H]1CO | i
C[C@H]1CN([C@@H](C)CO)C(=O)c2cc(-c3ccc(C(=O)N(C)C)cc3)cnc2O[C@H]1CN(C)C | i
O=C(NC1CCCC1)[C@H]1[C@H](CO)[C@H]2Cn3c(cccc3=O)[C@@H]1N2CC1CCCC1 | i
NCC[C@H]1CC[C@H](NC(=O)c2ccccc2F)[C@@H](CO)O1 | i
COCCNC(=O)C[C@H]1C[C@H]2c3cc(NC(=O)NC4CCCC4)ccc3O[C@H]2[C@@H](CO)O1 | i
Cc1ccc(S(=O)(=O)N[C@@H]2CC[C@@H](CCNC(=O)Nc3ccc(Cl)cc3)O[C@H]2CO)cc1 | i
C[C@@H]1CN([C@H](C)CO)C(=O)Cc2cc(NS(=O)(=O)c3ccc(F)cc3)ccc2O[C@@H]1CN(C)C(=O)Nc1cccc2ccccc12 | i
CCNC(=O)C[C@H]1CC[C@@H]2[C@H](COC[C@H](O)CN2S(=O)(=O)c2ccccc2F)O1 | i
CO[C@H](CN(C)Cc1cc(F)ccc1F)[C@@H](C)CN(C(=O)Nc1ccc(F)cc1)[C@@H](C)CO | i
C[C@@H]1CCCCO[C@@H](CN(C)C(=O)Nc2ccc3c(c2)OCO3)[C@@H](C)CN([C@H](C)CO)C(=O)c2cc(NC(=O)Nc3ccccc3)ccc2O1 | i
C[C@@H]1CN([C@H](C)CO)S(=O)(=O)c2ccc(C#Cc3ccncc3)cc2O[C@@H]1CN(C)C(=O)C1CCOCC1 | i
O=C(C[C@@H]1C=C[C@H](NS(=O)(=O)c2ccc(F)cc2)[C@@H](CO)O1)NCCc1ccncc1 | i
Cc1noc(C)c1S(=O)(=O)N(C)C[C@H]1Oc2ccc(N(C)C)cc2CC(=O)N([C@H](C)CO)C[C@@H]1C | i
COc1ccc2c3c(n(C)c2c1)[C@H](CO)N(C(=O)NC(C)C)CC31CN(C(C)=O)C1 | i
CCNC(=O)Nc1ccc2c(c1)C(=O)N(C)[C@H]1CC[C@H](CC(=O)NCC3CC3)O[C@H]1CO2 | i
CC(C)NC(=O)Nc1ccc2c(c1)CC(=O)N([C@H](C)CO)C[C@@H](C)[C@H](CN(C)C)O2 | i
C[C@@H]1CCCCO[C@H](CN(C)Cc2ccccc2)[C@@H](C)CN([C@@H](C)CO)C(=O)c2cc(NC(=O)c3ccncc3)ccc2O1 | i
C[C@@H]1CN([C@H](C)CO)C(=O)c2cccc(NC(=O)c3nc4ccccc4s3)c2O[C@@H]1CN(C)Cc1ccc(C(=O)O)cc1 | i
O=C(Nc1cccc(F)c1)N1CCCCN2[C@@H](CO)[C@H](c3ccc(-c4ccccc4F)cc3)[C@@H]2C1 | i
OC[C@@H]1[C@@H](c2ccc(-c3ccc(F)cc3)cc2)[C@@H]2CN(Cc3ccccn3)CCCCN12 | i
O=C(C[C@H]1CC[C@@H]2[C@H](COC[C@H](O)CN2C(=O)c2ccc3c(c2)OCO3)O1)NCCN1CCCC1 | i
C[C@@H]1CN([C@H](C)CO)C(=O)c2cccc(NC(=O)C3CC3)c2O[C@H]1CN(C)Cc1ccc(-c2ccccc2)cc1 | i
O=C([C@@H]1[C@@H](CO)[C@@H]2Cn3c(ccc(-c4cncnc4)c3=O)[C@@H]2N1CC1CC1)N1CCCCC1 | i
O=C(C[C@H]1C[C@@H]2c3cc(NC(=O)c4ccc5c(c4)OCO5)ccc3O[C@@H]2[C@H](CO)O1)NCc1ccc(Cl)cc1 | i
CO[C@H]1CN(C)C(=O)c2ccc(NC(=O)C3CC3)cc2OC[C@H](C)N(Cc2ccncc2)C[C@@H]1C | i
Cc1noc(C)c1S(=O)(=O)N1CCCc2nc(-c3ccccc3)ccc21 | i
CN(C)C(=O)C[C@H]1CC[C@H]2[C@@H](COC[C@H](O)CN2C(=O)C2CC2)O1 | i
Cc1noc(C)c1S(=O)(=O)Nc1ccc2c(c1)C(=O)N([C@@H](C)CO)C[C@H](C)[C@H](CN(C)Cc1ccc(Oc3ccccc3)cc1)O2 | i
Cn1cnc(S(=O)(=O)N[C@H]2C=C[C@H](CC(=O)NCC3CCCCC3)O[C@H]2CO)c1 | i
COc1ccccc1NC(=O)N[C@H]1CC[C@@H](CC(=O)N[C@H](C)c2ccccc2)O[C@@H]1CO | i
C/C=C/c1ccc2c(c1)O[C@H](CN(C)C(=O)c1ccccn1)[C@@H](C)CN([C@H](C)CO)S2(=O)=O | i
C[C@@H]1CCCCO[C@H](CN(C)C(=O)NC2CCCCC2)[C@@H](C)CN([C@@H](C)CO)C(=O)c2cc(N(C)C)ccc2O1 | i
C[C@@H]1CN([C@@H](C)CO)C(=O)Cc2cc(NC(=O)C3CC3)ccc2O[C@@H]1CN(C)S(=O)(=O)c1ccccc1 | i
CO[C@@H]1CN(C)C(=O)c2ccc(NC(=O)C3CCCC3)cc2OC[C@H](C)NC[C@H]1C | i
C[C@H]1CCCCO[C@@H](CN(C)C(=O)Nc2ccc(C(F)(F)F)cc2)[C@@H](C)CN([C@@H](C)CO)C(=O)c2cc(N(C)C)ccc2O1 | i
O=C(C[C@@H]1C=C[C@H](NC(=O)Nc2cc(F)ccc2F)[C@@H](CO)O1)NCc1ccncn1 | i
O=C(C[C@H]1CC[C@@H](NS(=O)(=O)c2ccc(F)cc2)[C@H](CO)O1)NCCN1CCCCC1 | i

Compounds from the list above with a COOH group, in the order listed:
SMILES | FGF22 binding
Cc1ccc(-c2ccc3c(c2)O[C@@H](CN(C)Cc2cccc(C(=O)O)c2)[C@H](C)CN([C@@H](C)CO)S3(=O)=O)cc1 | i
C[C@@H]1CN([C@H](C)CO)C(=O)c2cccc(NC(=O)c3nc4ccccc4s3)c2O[C@@H]1CN(C)Cc1ccc(C(=O)O)cc1 | i

An excerpt from above in order of formula weight, largest number first.
SMILES | FGF22 binding
C[C@@H]1CCCCO[C@H](CN(C)C(=O)NC2CCCCC2)[C@@H](C)CN([C@@H](C)CO)C(=O)c2cc(N(C)C)ccc2O1 | i
O=C(C[C@@H]1C=C[C@H](NC(=O)Nc2cc(F)ccc2F)[C@@H](CO)O1)NCc1ccncn1 | i
Cc1noc(C)c1S(=O)(=O)N1CCCc2nc(-c3ccccc3)ccc21 | i

Other results
SMILES | FGF22 binding
COc1cccc(NC(=O)N[C@@H]2CC[C@H](CC(=O)N3CCCCC3)O[C@@H]2CO)c1 | i
C[C@H]1CN([C@@H](C)CO)C(=O)Cc2cc(NC(=O)C3CCCCC3)ccc2O[C@H]1CN(C)Cc1ccc(C(F)(F)F)cc1 | i
Cc1noc(C)c1S(=O)(=O)Nc1ccc2c(c1)C(=O)N([C@H](C)CO)C[C@@H](C)[C@H](CN(C)Cc1ccc(C(=O)O)cc1)OCCCC[C@@H](C)O2 | i
C[C@@H]1CN([C@H](C)CO)C(=O)Cc2cc(NS(=O)(=O)c3ccc(Cl)cc3)ccc2O[C@@H]1CN(C)CC1CCCCC1 | i
C[C@@H]1CN([C@H](C)CO)C(=O)c2cc(-c3cccc(C(=O)N(C)C)c3)cnc2O[C@@H]1CN(C)CC1CC1 | i
C[C@@H]1CN([C@H](C)CO)C(=O)c2cc(-c3ccc(C(=O)N(C)C)cc3)cnc2O[C@H]1CN(C)Cc1ccc(C(=O)O)cc1 | i
C[C@@H]1CN([C@@H](C)CO)C(=O)c2cc(NC(=O)Nc3ccc4c(c3)OCO4)ccc2O[C@@H](C)CCCCO[C@H]1CN(C)C(=O)Nc1ccc(C(F)(F)F)cc1 | i
Cc1noc(C)c1S(=O)(=O)Nc1ccc2c(c1)C(=O)N([C@@H](C)CO)C[C@H](C)[C@@H](CN(C)S(=O)(=O)c1ccc(F)cc1)OCCCC[C@H](C)O2 | i
CN(C)CC(=O)N1CC2(C1)[C@H](c1ccccc1)[C@H](CO)N2Cc1cc(F)ccc1F | i
COc1ccc(S(=O)(=O)N(C)C[C@H]2Oc3ccc(NC(=O)CCC(F)(F)F)cc3C(=O)N([C@@H](C)CO)C[C@@H]2C)cc1 | i
C[C@@H]1CN([C@@H](C)CO)C(=O)c2cc(Br)cnc2O[C@H]1CN(C)CC1CCCC1 | i
COc1ccc(S(=O)(=O)N(C)C[C@H]2Oc3c(NC(=O)C4CCOCC4)cccc3C(=O)N([C@H](C)CO)C[C@H]2C)cc1 | i

High-throughput results from PubChem BioAssay.

The list is partial; count on the stated rates, not on these rows.
